2A Renilla – FMDV 2A StopGo reporter, Renilla signal | HEK cells with a luciferase reporter of 2A StopGo recoding | Potency, µM (titrated, usually from 57.5 µM), inactives show top-dose signal change, negative = less light | 120,000 compounds, 0.32% hits; active means well fitted falling curve with a large enough effect; inconclusive means small, poorly fitted or top-dose-only effect; inactive means no such curve, though single readings can be large or run the other way; further: nearly all actives have a fitted effect of over 55% in size; overnight with compound
StopGo FLuc – FMDV 2A StopGo reporter, firefly signal; HEK cells with a luciferase reporter of 2A StopGo recoding; Potency, µM (series often up to 57.5 µM), without a hit: at the top dose signal change, negative = less light; 120,000 compounds, 0.23% hits; AID 1745856; active = well fitted falling curve with a large enough effect; inconclusive = small, poorly fitted or top-dose-only effect; inactive = no such curve, though single readings can be large or run the other way; further: nearly all actives have a fitted effect of over 60% in size; overnight with compound
The depositor's hits bear a star; ? = inconclusive; & = joins results of further samples; [ ] = another dose, or the depositor's remark. On the % scale 0 is the no-effect control and ±100 the full control effect; potency means the concentration at half of the fitted maximal effect.

| SMILES | 2A Renilla | StopGo FLuc |
| --- | --- | --- |
| COc1ccc(C2=NOC(C(=O)Nc3cc(C)nn3-c3ccccc3)C2)cc1OC (stereo not given) | -3% | 3% |
| O=C(NCC(=O)N1CCCC1c1ccccc1)c1ccc(Cl)c(Cl)c1 (stereo not given) | 8% | -1% |
| CC(NC(=O)c1ccccc1)C(=O)O (stereo not given) | -4% | 1% |
| COc1ccc(Br)cc1CSc1nnc(C)n1C1CC1 | 62%[activator] | 5% |
| CCCc1nn2c(=O)cc(COc3cc(C)cc(C)c3)nc2s1 | -1% | 1% |
| CC(C)c1noc(Cn2c(=O)c(C#N)cn(C3CC3)c2=O)n1 | -4% | 1% |
| CCc1ccc(NC(=O)C2CCCN(S(=O)(=O)c3c(C)[nH]c(=O)[nH]c3=O)C2)cc1 (stereo not given) | -14% | -14% |
| O=C1CCCC2=C1C(c1ccc(Br)cc1)n1nnnc1N2 (stereo not given) | -5% | 2% |
| Cc1cccc(NC(=O)C(=O)NCC(c2cccnc2)N2CCc3ccccc3C2)c1C (stereo not given) | -9% | -4% |
| Cc1cc(N2CCN(S(=O)(=O)c3ccc(Br)cc3Cl)CC2)nc(C(C)C)n1 | ? | ? |
| CC(=O)c1ccc(OCC(C)C)c(CN2CCCCC2)c1 | 13% | 0% |
| COc1ccc(OC)c(/C=C2\N=C(SC)SC2=O)c1 | -2% | 3% |
| CCc1ccc(NC(=O)c2nc3ccccc3nc2N2CCCC2)cc1 | 13% | 7% |
| COc1ccc(N(C)C(=O)c2cc3c(s2)-c2ccccc2OC3)cc1 | 3% | 14% |
| COc1cccc(NS(=O)(=O)c2ccc3[nH]cc(C(=O)NCCc4ccccc4)c(=O)c3c2)c1 | 16% | 23% |
| COc1ccc(/C=C/c2onc(C)c2S(=O)(=O)N2CCC(C(=O)N3CCC(C)CC3)CC2)cc1 | -11% | -4% |
| COc1cc(/C=N/OC(=O)c2ccc(C(F)(F)F)cc2)ccc1OCc1ccccc1 | 1% | 162%[activator] |
| COc1cccc(N2CCN(C(=O)Cn3ncc4c3-c3ccccc3OC4)CC2)c1 | -13% | 0% |
| Cc1cc(N2CCC(C)CC2)nc2ccc(NC(=O)Cc3ccccc3Br)cc12 | -8% | -13% |
| Cc1ccc(OCCn2nnc3sc4c(c3c2=O)CCC(C)C4)cc1 (stereo not given) | -15% | -10% |
| COc1cccc(-c2csc(NCC(C)C)n2)c1 | 81%[activator] | 250%[activator] |
| O=C(NCCc1ccccc1)c1cc2ccccc2oc1=O | -9% | -15% |
| COc1cc(OC)c2c(C)c(CC(=O)N3CCCCC3)c(=O)oc2c1 | 13%&-15% | 23%&-9% |
| O=C(C1CCCN(S(=O)(=O)c2ccc(Br)s2)C1)N1CCN(c2cccc(Cl)c2)CC1 (stereo not given) | -8% | -9% |
| CCc1nnc(SC(CC)C(=O)Nc2cc(C)ccc2C)c2cc3occc3n12 (stereo not given) | -1% | 2% |
| CCn1nc(C)c(CCN(C)C(=O)Nc2cc(C)cc(C)c2)c1C | -7% | 1% |
| CC(C)c1cccc(Nc2ccc(S(N)(=O)=O)cc2[N+](=O)[O-])c1 | -4%[1.06 µM] | ? |
| O=C(Nc1ccon1)c1cccn(Cc2ccccc2)c1=O | 3% | 23% |
| Cc1ccc(Cn2ccn(Cc3ccc(C)cc3)c(=O)c2=O)cc1 | 6% | 0% |
| N#Cc1ccccc1COC(=O)c1ccc(Cl)cc1 | 0% | -11% |
| COc1ccc(Cn2c(C(=O)O)c(CNC3CCCCC3)c3ccc(C)cc32)cc1 | 15% | -12% |
| O=C(COc1ccc(F)cc1)OCc1cc(=O)n2nc(C3CC3)sc2n1 | -3%&-5% | 1%&-14% |
| COc1ccc(C)c2sc(N3CCN(C(=O)c4ccco4)CC3)nc12 | -15% | 6% |
| CCN(CC)CCNC(=O)c1ccc(-c2nc(CS(=O)(=O)c3ccc(C)cc3)c(C)o2)cc1 | -4% | -18% |
| O=C(NCCc1ccc(Cl)cc1)C(=O)NCC(c1ccco1)S(=O)(=O)c1ccccc1 (stereo not given) | -19% | 6% |
| Cc1ccc(C(=O)OCC(=O)NCc2ccc3c(c2)OCO3)cc1F | -12% | -14% |
| Cc1cccc(-c2ocnc2C(=O)Nc2cccc(Cl)c2C)c1 | 0% | 0% |
| CCN(CC)c1ccc(NC(=O)COCc2cc(-c3ccc4c(c3)OCO4)on2)c(C)c1 | ? | -14% |
| CCCCCc1ccc(/C=C/C(=O)O)cc1 | -9%[1.06 µM] | 3% |
| CCNCc1cccc(Oc2nnnn2-c2ccccc2)c1 | -14% | -9% |
| Cn1c(=O)[nH]c(=O)c2c1nc(N)n2CC(O)COc1ccc(Cl)cc1 (stereo not given) | 10% | 17% |
| CCOc1cc(C)c(S(=O)(=O)NCC(C)O)cc1C (stereo not given) | 235%[activator] | 45%[activator] |
| CCOCCCNc1nc(-c2ccc3[nH]c(=O)[nH]c3c2)cs1 | 5% | 23% |
| CCCn1nc(C(=O)N2CCC(C(=O)OC)CC2)c2ccccc2c1=O | -3% | -4% |
| Cc1ccc(C)c(-n2c3nc(=O)[nH]c(=O)c-3cc3c(C)nn(-c4ccccc4)c32)c1 | 1% | 12% |
| CCOc1ccccc1CNC(=O)c1ccc(CS(=O)c2ccc(OC)cc2)o1 (stereo not given) | -7% | -17% |
| Cn1c(CNC(=O)CSc2nc(-c3cccc(Cl)c3)nc3cc(=O)[nH]n23)nc2ccccc21 | -3% | -18% |
| Cc1ccc(N2C(=O)CCSC23C(=O)N(Cc2ccc(F)cc2)c2ccccc23)cc1 (stereo not given) | 240%[activator] | 0% |

Reprinted at random: three compounds from above, in no set order.
| SMILES | 2A Renilla | StopGo FLuc |
| --- | --- | --- |
| Cn1c(CNC(=O)CSc2nc(-c3cccc(Cl)c3)nc3cc(=O)[nH]n23)nc2ccccc21 | -3% | -18% |
| CCNCc1cccc(Oc2nnnn2-c2ccccc2)c1 | -14% | -9% |
| Cc1ccc(N2C(=O)CCSC23C(=O)N(Cc2ccc(F)cc2)c2ccccc23)cc1 (stereo not given) | 240%[activator] | 0% |

Later entries
| SMILES | 2A Renilla | StopGo FLuc |
| --- | --- | --- |
| COc1ccc(C2CC(=O)c3cnc4c(-c5ccccc5)c(C)nn4c3C2)c(OC)c1 (stereo not given) | -8% | -12% |
| Cc1c(Cl)ccc2sc(NC(=O)c3ccc(S(=O)(=O)N4CCCC4)cc3)nc12 | -6% | -10% |
| CCOC(=O)N1CCN(Cc2nc3cc(NC(=O)c4ccc(F)cc4)ccc3n2C(C)C)CC1 | 1% | 0% |
| CN(C)c1ccc(CNS(=O)(=O)c2csc(C(N)=O)c2)cc1 | ? | ? |
| Cc1cn2c(=O)cc(COC(=O)C(C)Oc3ccccc3)nc2s1 (stereo not given) | -7%&-16% | -6%&-19% |
| Cc1ccc(C(=O)CCC(=O)Nc2ccc(C)cc2C)cc1 | -9% | 7% |
| O=C(C1COc2ccccc2O1)N(Cc1cccnc1)c1nc2ccc(F)cc2s1 (stereo not given) | ? | 187%&31%[activator] |
| COc1ccc(NC(=O)CN2C(=O)CCc3cc(S(=O)(=O)N4CCOCC4)ccc32)cc1Cl | 19% | 4% |
| Cc1ccc2c(C=O)c(C)[nH]c2c1 | 30% | 0% |
| CN(CCOC(=O)c1ccc2c(c1)OCO2)C(C)(C)C | -1% | -2% |
| Cc1ccc(OCCSc2nc3ccc(NC(=O)c4ccco4)cc3s2)cc1 | -14% | 18% |
| O=C(NCCc1c[nH]c2ccccc12)c1cc(F)ccc1F | 9% | 107%[activator] |
| CCOC(=O)c1c(NC(=O)C(=O)NCc2ccco2)sc2c1CC(C)(C)OC2 | -8% | -14% |
| Cc1cc(C=O)c(C)n1C | 0% | -1% |
| CCOC(=O)c1oc2cc(OS(C)(=O)=O)ccc2c(=O)c1-c1ccccc1OC | 6% | 30%[activator] |
| CCc1cccc(NS(=O)(=O)c2ccc3c(c2)n(C)c(=O)c(=O)n3C)c1 | 144%[activator] | 7% |
| CCOC(=O)c1nc2ccccc2nc1NCc1cccc(OC)c1 | -5% | -6% |
| CCCc1[nH]nc2c1C(c1ccc(OC)c(OC)c1)C(C#N)=C(N)O2 (stereo not given) | 10% | 19% |
| CC(C)(Oc1ccc(Cl)cc1)C(=O)Nc1ccc2oc(-c3ccncc3)nc2c1 | 3% | 12% |
| O=C(c1ccc2c(c1)N(Cc1cccc(Cl)c1)C(=O)c1ccccc1S2)N1CCOCC1 | 12% | 23% |
| CN(CC(=O)Nc1cccc(F)c1)C(=O)CCc1ncc(-c2ccccc2)o1 | 17% | 151%[activator] |
| COc1ccc(N2CCN(C(=O)c3cn(C4CCCCC4)c(=O)c4c3c3ccccc3n4C)CC2)cc1 | 199%[activator] | -3% |
| CCOC(=O)CC(NC(=O)Cn1nnc(-c2ccccc2C)n1)c1ccc(OC)cc1 (stereo not given) | 5% | 4% |
| Cc1ccc(NC(=O)Cn2c(=O)n(CCCCC(=O)NCCc3ccccc3)c(=O)c3ccccc32)cc1 | -16% | -24% |

Brought forward from above: six entries, then new ones.
| SMILES | 2A Renilla | StopGo FLuc |
| --- | --- | --- |
| CC(C)(Oc1ccc(Cl)cc1)C(=O)Nc1ccc2oc(-c3ccncc3)nc2c1 | 3% | 12% |
| O=C(c1ccc2c(c1)N(Cc1cccc(Cl)c1)C(=O)c1ccccc1S2)N1CCOCC1 | 12% | 23% |
| CN(CC(=O)Nc1cccc(F)c1)C(=O)CCc1ncc(-c2ccccc2)o1 | 17% | 151%[activator] |
| COc1ccc(N2CCN(C(=O)c3cn(C4CCCCC4)c(=O)c4c3c3ccccc3n4C)CC2)cc1 | 199%[activator] | -3% |
| CCOC(=O)CC(NC(=O)Cn1nnc(-c2ccccc2C)n1)c1ccc(OC)cc1 (stereo not given) | 5% | 4% |
| Cc1ccc(NC(=O)Cn2c(=O)n(CCCCC(=O)NCCc3ccccc3)c(=O)c3ccccc32)cc1 | -16% | -24% |
| COc1ccc(Cl)cc1NC(=O)c1oc2ccc(S(=O)(=O)N3CCCCC3)cc2c1C | -1% | -12% |
| N#Cc1ccc(NS(=O)(=O)c2ccc(S(=O)(=O)N3CCCC3)cc2)cc1 | 66%[activator] | 3% |
| CCCn1c(CN(Cc2ccccc2)Cc2ccccc2)nc2c1c(=O)[nH]c(=O)n2C | -6% | -2% |
| COc1ccc(Oc2coc3cc(OCc4ccccc4)ccc3c2=O)cc1 | 10% | 69%[activator] |
| Cc1cccc(NC(=O)CSc2nc3c([nH]c4ccccc43)c(=O)n2C)c1C | 43%[activator] | -22% |
| O=c1oc2ccccc2c(NCc2ccccc2)c1NS(=O)(=O)c1ccccc1F | 58%[activator] | -11% |
| CCOc1ccc(-n2cc(-c3ccccc3)c3c(NCc4ccccc4)ncnc32)cc1 | 13% | -11% |
| O=C(NC(c1ccc(Cl)cc1)c1cccnc1)c1ccccc1 (stereo not given) | -6% | 1% |
| N#Cc1ccc(NCc2cc(Br)ccc2F)cc1 | 53%[activator] | 23% |
| O=C(CCNc1nc(Cl)nc2nc[nH]c12)NC1CC1 | 0% | 1% |
| CCOc1ccccc1Nc1nc2ccccc2c2nncn12 | -10% | -7% |
| Cc1cc(C)cc(NC(=O)Cn2cc(C(=O)c3ccncc3)c(=O)c3cc(C)c(C)cc32)c1 | 1% | 21% |
| COc1cccc(Nc2nc(-c3ccccc3)c3cc(C)ccc3n2)c1 | -19% | ? |
| CCOC(=O)C1CCCN(S(=O)(=O)c2cc(Br)cc3c2N(C(C)=O)CC3)C1 (stereo not given) | 5% | -19% |
| COc1cc2ncnc(Nc3ccc(F)c(Cl)c3)c2cc1OCCCN1CCOCC1 | -28% | -30% |
| CNc1snc(C)c1C(=O)OC(C)C(=O)NC1CCCCC1 (stereo not given) | -3% | -2% |
| COc1ccc(Nc2cc(C)nc(Nc3ccc(NC(=O)C4CCCCC4)cc3)n2)cc1 | 28µM* | ? |
| O=C(O)c1ccc(NC(=O)c2cc(S(=O)(=O)N3CCCCC3)c(Cl)cc2Cl)cc1 | -10% | 5% |
| CCOC(=O)N1CCc2c(sc3c2c(=O)n(Cc2ccccc2)c(=O)n3Cc2cccc(Cl)c2)C1 | -4% | 2% |
| O=C(OCC(=O)N1CCCCCC1)c1cnc2ccccc2n1 | 0% | 0% |
| CCN(CC)C(=O)[C@@H]1C=C2c3cccc4[nH]cc(c34)C[C@H]2N(C)C1 | -5%[273 µM] | 0% |
| CC1(C)CC(=O)C2=C(C1)N(c1ccccc1C(F)(F)F)C(N)=C(C#N)C21C(=O)Nc2ccc(F)cc21 (stereo not given) | -15% | -22% |
| C=C(C)CN1CCN(Cc2ccc(C#N)cc2)CC1 | -6% | -7% |
| CCCOc1ccc(-c2nc(C#N)c(NCCCN(CC)CC)o2)cc1 | 2% | 20% |
| O=C(CCC1N=C2c3ccccc3N=C(SCC(=O)Nc3ccccc3F)N2C1=O)NCc1cccs1 (stereo not given) | 6% | 10% |
| COc1ccc(CNc2nc(-c3ccco3)nn2C(=O)CC(C)C)cc1 | -4% | 72%[activator] |
| CCOC(=O)c1sc2nc(C(C)N3CCCC3)[nH]c(=O)c2c1C (stereo not given) | -9% | 9% |

Source: PubChem

An excerpt, so the mix of outcomes need not match the whole.
